Compound activity as filed in PubChem BioAssay.
MT1-MMP act inh: blocks activation of human MT1-MMP. GFP/RFP ratio change, % at 20 µM. 360,000 compounds, 0.061% hits. HT1080 RFP-PRO-GFP cells, GFP/RFP ratio fluorescence, overnight; percent of plate control window, DMSO zero;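 active = GFP/RFP ratio change of at least 30% with cell ATP level not reduced by more than half and red fluorescence within 50% of control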; also: strong numbers were not always called active
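Compound: 20 µM single dose, 1% DMSO / System: HT1080 RFP-PRO-GFP cells / Controls: DMSO and RFP-L50D-GFP cell wells / Read-out basis: GFP/RFP fluorescence ratio / Schedule: overnight compound exposure at 37 °C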
eIF4H FP inh: inhibitors of RNA binding by human eIF4H. Q15056. eIF4H fluorescence polarization binding assay. 290,000 compounds, 0.94% hits. AID 2012. inhibition, % at 35 µM;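 active = 50% or more with normal probe brightness, or confirmed in later tests; inconclusive = above 50% with abnormal brightness, or retests that disagree; inactive = below 50% or failed in later tests; about a fifth of its hits are not listed in these tables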;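 also: calls also rest on retests at 20 µM and on dose response follow-up; 0% = protein and probe with vehicle and 100% = probe without protein; strong numbers were not always called active; many hits fall short of the cut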
HIV Env fusion: inhibitors of HIV Env-mediated cell fusion. HeLa-JRFL Env/CEM21 cell fusion, luciferase. AID 651610. inhibition, % at 12.3 µM. 360,000 compounds, 1.1% hits;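 active = mean replicate inhibition score of at least 50 and every replicate individually at or above 50; inconclusive = only one of the two criteria met; inactive = mean below 50 and not all replicates reaching 50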;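 also: 0% = plate neutral controls and 100% = maraviroc near 300 nM; one replicate is shown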
CSC inhib: blocks cancer stem cells | cancer stem cell-like cells viability, luminescence | inhibition, % at 7.5 µM | 300,000 compounds, 1.1% hits | AID 2717;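 active = mean at 75% or more and at least half the replicates too; inconclusive = mean and replicates disagree; tested in HMLE shEcad cells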;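 also: 0% = median of negative and 100% = median of positive control wells; the first replicate is given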
UUG fidelity: yeast start codon fidelity modulation; S. cerevisiae UUG-firefly luciferase reporter, luminescence/redox ratio; 350,000 compounds, 0.13% hits; AID 602363; activity score, % at 18.7 µM;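 active = replicate mean at a twofold rise or more, about +100% in these data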;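 also: firefly luciferase made from a UUG start codon reports start codon fidelity; reporter light over untreated wells divided by growth signal over untreated wells; some hits fall short of that in this replicate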
PABP polyA inh: PABP-poly(A) binding inhibition; PABP-poly(A) RNA binding, fluorescence polarization; inhibition, % at 35 µM; 290,000 compounds, 1% hits; AID 2014;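 active = 50% or more with normal probe brightness, or confirmed in later tests; inconclusive = above 50% with abnormal brightness, or retests that disagree; inactive = below 50% or failed in later tests; about a fifth of its hits are not listed in these tables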;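 also: calls also rest on retests at 20 µM and on dose response follow-up; controls were probe without protein and protein plus probe with vehicle; some compounds called inactive have numbers as strong as hits; many hits fall short of the cut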
Target sequence (P11940 whole entry, looked up): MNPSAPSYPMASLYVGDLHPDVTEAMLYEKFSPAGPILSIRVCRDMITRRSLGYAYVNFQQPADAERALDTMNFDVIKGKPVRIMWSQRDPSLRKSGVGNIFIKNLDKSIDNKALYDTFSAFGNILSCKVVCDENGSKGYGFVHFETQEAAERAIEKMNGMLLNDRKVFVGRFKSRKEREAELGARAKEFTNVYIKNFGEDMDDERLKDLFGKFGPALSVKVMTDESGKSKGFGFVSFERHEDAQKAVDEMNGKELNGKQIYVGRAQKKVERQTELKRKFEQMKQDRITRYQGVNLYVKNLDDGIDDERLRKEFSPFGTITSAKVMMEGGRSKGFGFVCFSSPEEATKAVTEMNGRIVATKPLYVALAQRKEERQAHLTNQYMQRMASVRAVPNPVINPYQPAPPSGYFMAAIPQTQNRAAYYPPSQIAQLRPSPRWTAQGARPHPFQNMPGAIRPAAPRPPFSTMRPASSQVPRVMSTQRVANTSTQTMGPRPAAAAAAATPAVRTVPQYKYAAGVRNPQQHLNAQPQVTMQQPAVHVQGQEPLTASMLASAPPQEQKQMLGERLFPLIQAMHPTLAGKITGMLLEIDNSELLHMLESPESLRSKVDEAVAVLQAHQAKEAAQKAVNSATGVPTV
Rce1 inhib: blocks yeast Ras-converting enzyme; AID 2563; yeast membranes, quenched prenylated peptide cleavage fluorescence; calls only; Q03530; 290,000 compounds, 0.27% hits;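 active = fall in fluorescence gain of 50% or more versus controls, with final raw signal at or below 3038400; inconclusive = same 50% fall but final raw signal above 3038400; inactive = fall in fluorescence gain under 50%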;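 also: plate controls were neutral control wells for no effect and wells lacking membranes for full effect; tested at 10 µM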
eIF4H FP inh retest: further read-out of eIF4H FP inh, marked with its call; inhibition, %; compound at 20 µM; confirmation average;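 mean of two retest wells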
PABP polyA inh retest: second read-out of PABP polyA inh, no call of its own (marks repeat the call); inhibition, %; compound at 20 µM; confirmation repeats;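 mean of two retest wells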
MT1-MMP act inh RFP: second read-out of MT1-MMP act inh, no call of its own (marks repeat the call); RFP signal change, %; measured here: RFP expression control read;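 0 = vehicle wells; hits needed this value within 50% of zero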
* hit, by the source's call; i = inactive; ? = inconclusive; . = not tested or not shown; & = joins results of further samples. This is a subset; the hit share may differ from the screen's.

SMILES	MT1-MMP act inh	MT1-MMP act inh RFP	eIF4H FP inh	HIV Env fusion	CSC inhib	UUG fidelity	PABP polyA inh	Rce1 inhib	others
Cc1ccc(NC(=O)CCCNC(=O)c2ccc(Cl)cc2)c(Br)c1	5	-4	10	7	4	5	-1	i
Cc1ccc(S(=O)(=O)NCCC(=O)OCC(=O)N2CCCC2=O)cc1C	-3	2	.	-3	-6	-8	.	i
COc1ccc(Cc2c3cc(OC)c(OC)cc3cc[n+]2C)cc1OC	-3	1	-6	.	0	-8	20	i
CCCCn1c(N)c(N(CC(C)C)C(=O)c2ccc(Cl)c(S(=O)(=O)N3CCCC3)c2)c(=O)[nH]c1=O	5	-3	.	29	11	.	.	i
COc1ccc(Oc2ccc(-c3ccn[nH]3)cc2)cc1	-2	-4	1	-10	-1	-9	5	i
Cn1nnnc1SCC(=O)N1CCN(S(=O)(=O)c2ccc(Cl)cc2)CC1	6	7	-6	-7	-6	.	-13	i
O=C(Nc1ccccn1)c1cc(-c2cccc(Cl)c2)nc2ccccc12	-6	-3	1	0	13	.	7	i
C=CCn1c(-c2ccccc2)c[nH]c1=S	6	8	-2	-300	5	6	2	i
COc1ccc(CCNC(=O)C2CC2)cc1OC	3	1	12	.	-14	-7	2	i
Cc1sc2ncnc(SCC#N)c2c1C	-18	10	37*	.	.	-15	112	i	eIF4H FP inh retest=79*;PABP polyA inh retest=47
CCOC(=O)c1c(C)c(C(=O)NCc2cccnc2)c(C)n1C	0	0	-12	.	-6	0	-12	i
CCc1nc2c(OCc3ccc(F)c(F)c3)cccn2c1N(C)C(=O)c1ccncc1	3	0	.	-2	.	-21	.	.
CC(C)(CO)NC(=O)C(Cc1ccccc1)N1C(=O)c2ccccc2C1=O (stereo not drawn)	-1	7	-2	2	-5	-21	0	i
c1ccc(N2CC[N+]3(CCCC3)CC2)nc1	0	4	6	.	-24	-33	14	i
N#Cc1cnn2ccc(-c3ccc4c(c3)CCC4)nc12	2	-4	3	-9	-6	-10	-8	i
CCCCNc1c(-c2ccc(OC)c(SC(C)CC)c2)nc2ccc(Cl)cn12 (stereo not drawn)	1	-10	.	-1	53	-7	.	.
Cc1ccc(S(=O)(=O)N2CC(O)C[C@H]2C(=O)OCC(=O)Nc2ccc(N3CCCCC3)cc2)cc1C (stereo partly drawn)	16	-4	.	-9	7	5	.	i
CC(=O)Nc1ccc(C(=O)COC(=O)c2c(C)noc2C)c(F)c1	-1	-1	.	.	-2	-3	.	.
C=CCN1C(=O)c2cccc3c(N4CCCCC4)ccc(c23)C1=O	-138	-8	?	-14	45	.	2	i
O=C(Nc1ccc(F)cc1)N1CCC(c2nc3c(nnn3Cc3ccccc3Cl)c(=O)[nH]2)CC1	6	0	-7	10	-17	.	-2	i
O=C(O)c1ccc(-c2nc(-c3ccccc3)c(-c3ccccc3)[nH]2)cc1	7	-4	4	17	-10	.	2	?
Cc1nc(N/N=C/c2ccccn2)sc1C	.	.	11	107*	70	.	10	.
Cc1cccc(/C=C2\Sc3ccc(C(=O)NCC4CCCO4)cc3N(C)C2=O)c1 (stereo not drawn)	-4	-8	-13	-4	8	-3	-2	i
C[C@H](CO)N1C[C@H](C)[C@@H](CN(C)C(=O)Nc2ccc3c(c2)OCO3)Oc2ccc(NC(=O)Cn3cnnn3)cc2C1=O	-2	1	.	20	7	-6&1	.	.
Cc1ccccc1NC(=O)C1CCCN(c2ncnc3onc(-c4ccc(F)cc4)c23)C1 (stereo not drawn)	1	3	3	8	-14	-12	-3	i
COc1cc(/C=C(\C#N)C(=O)Nc2ccccn2)ccc1O	-10	-2	-18	-65	5	-18	-7	i
Fc1cccc(NCc2cn3ccccc3n2)c1	3	1	2	-168	-3	-22	2	i
COC(=O)c1ccccc1NC(=S)NC(C)=O	-3	3	-8	21	4	.	-6	.
C/C(=N\NC(=O)c1nnn(-c2nonc2N)c1COc1ccc(F)cc1)c1ccc(Cl)cc1	1	5	-7	-8	-5	.	0	i
Cc1c(C)c2c(OCC(=O)NCCCO)cc3c(c2oc1=O)CCC(C)(C)O3	4	2	-6	15	-6	-9	6	i
COc1ccc(NC(=O)CSc2nnc(C3CCCCC3)n2-c2ccccc2)cc1	-7	-7	4	-30	53	-6	13	i
O=C(Nc1ccc(C(=O)N2CCOCC2)cc1)c1ccccc1Cl	3	4	.	-4	.	0	.	.
COc1ccc(CC2(CO)CCN(C(C)Cc3ccc(Cl)cc3)CC2)cc1 (stereo not drawn)	1	2	-2	-11	23	.	0	i
Cc1ccccc1Nc1nnc(SCC(=O)Nc2ccccc2[N+](=O)[O-])s1	6	-2	-17	.	-8	-12	-6	i
O=C(NCC1CCCO1)c1cc(C(=O)C2CCCCC2)c[nH]1 (stereo not drawn)	4	1	0	3	.	-7	?	i
COC(CNc1ncnc2sc(-c3ccccc3)cc12)OC	-1	-8	-9	18	-1	-8	5	i
COc1ccccc1N1CCN(C2CCN(S(=O)(=O)c3ccc(C)cc3)CC2)CC1	.	.	-8	6	4	.	0	i
COC(=O)c1sccc1NC(=O)c1cccc(Cl)c1	0	0	.	6	7	.	.	i
O=C(C[n+]1ccc2ccccc2c1)c1cccc2ccccc12	-2	7	2	-19	1	.	-3	i
C[C@H]1CN(S(=O)C(C)(C)C)[C@@H](CCO)/C1=C\c1ccccc1 (stereo partly drawn)	2	-3	.	-14	.	-6	.	.
CCc1ccc(OCC(=O)Nc2ccncc2)cc1	3	-4	0	2	9	-8	1	i
CCCCn1c(S(=O)(=O)O)nc2ccccc21	3	2	-3	-34	-2	-7	7	i
CC1CCC(N2CCN(c3ncccn3)CC2)C1 (stereo not drawn)	10	14	-10	.	-2	1	8	i
COc1ccc(C(=O)NCC2(c3ccc(OC)c(OC)c3)CCCC2)cc1OC	0	-2	.	3	.	6	.	.
O=C1N(C2CCCC2)C[C@@H]2C[C@@H](c3cn[nH]c3-c3ccc(Cl)cc3)N3CCC[C@@]123	-7	-3	4	-2	6	-6	56*	i
Cc1cc(C)c(S(=O)(=O)NNC(=O)C2CCN(Cc3ccccc3)CC2)c(C)c1	2	7	6	-12	-6	6	-13	i
CSc1ccc(-c2sc(Nc3ccccc3)n[n+]2-c2ccccc2)cc1	-1	-1	6	.	20	-13	15	i
O=c1oc(CCCO)cc2ccc(Br)cc12	1	0	.	-113	-3	1	.	.
Cc1cccc2cc(CN(CC3CCCO3)C(c3nnnn3Cc3ccco3)C(C)C)c(=O)[nH]c12 (stereo not drawn)	-17	-7	-6	.	-10	14	1	i
O=C(Nc1ccc(F)c([N+](=O)[O-])c1)c1cccs1	0	-6	8	7	-13	-19	-6	i
Cc1ccc(S(=O)(=O)CC(=O)N(CCCN2CCOCC2)c2nc3c(F)cccc3s2)cc1	8	-2	.	6	-6	-9	.	i
O=C(OCC(=O)N1CCC(Cc2ccccc2)CC1)c1cccnc1Cl	-7	0	.	25	-12	5	.	.
COc1cccc(CNC(=O)COC(=O)c2nn(C)c(=O)c3ccccc23)c1	1	1	.	-5	-20	-1	.	.
Cc1noc(C)c1S(=O)(=O)N1CCN(Cc2ccc3c(c2)OCO3)CC1	0	-3	-4	-37	.	-3	-13	i
COc1cccc(C(=O)Nc2cc(C)nn2-c2ccccc2)c1OC	-1	0	0	18	6	-12	-1	i
Cc1cc(C2=NNC(=Nc3ccc(S(=O)(=O)N4CCOCC4)cc3)SC2)c(C)n1C	-3	-4	-6	-5	7	-12	10	i
COC(=O)CSc1nc(NC(C)=O)nc(C)c1Br	7	7	0	.	-16	-2	-2	i
CCOC(=O)C1=C(C)N(C)C(=O)NC1c1ccccc1OC (stereo not drawn)	0	0	-8	.	4	-1	-6	i
C(=C\c1ccccc1)/CSc1nnc(-c2ccncc2)n1Cc1ccco1	-15	-1	4	.	-6	.	16	i
Cc1nc(N2CCN(C(=O)c3ccc(Cl)cc3)CC2)c(C#N)c2c1COC(C)(C)C2	1	-12	16	.	23	11	0	i
(listing goes on)
SMILES	MT1-MMP act inh	MT1-MMP act inh RFP	eIF4H FP inh	HIV Env fusion	CSC inhib	UUG fidelity	PABP polyA inh	Rce1 inhib	others
O=S(=O)(c1ccccc1)c1nc(-c2ccco2)oc1N1CCOCC1	6	7	7	.	-1	.	-1	i
COc1cc(C(=O)NC(CCSC)C(=O)OCC(=O)C(C)(C)C)cc(OC)c1OC (stereo not drawn)	1	0	0	17	-4	-1	2	i
CCOC(=O)c1nc(C)c(C(C)=O)s1	2	2	1	25	5	-24	2	i
O=c1[nH]c(CN2CCN(c3ccccc3)CC2)nc2scc(-c3ccccc3)c12	-40	0	?	-13	49	-16	2	i
CC(C(=O)Nc1ccc(S(=O)(=O)Nc2ncccn2)cc1)N1C(=O)c2ccccc2S1(=O)=O (stereo not drawn)	2	6	.	.	-9	.	.	i
Cc1ccc(C(=O)c2nc3c(n2O)CCCC3)cc1	1	5	5	.	-3	-21	-9	i
O=C(CSc1cn[nH]n1)Nc1nc2ccccc2s1	-2	1	0	-43	-4	-9	-2	i
CN1CCSc2ccc(C(=O)Nc3cccc(F)c3)cc21	5	-8	-1	-361	.	.	-2	i
CCCC(=O)Nc1ccc(N2CCN(C(=O)CCC)CC2)cc1	5	-1	-9	-31	-3	-3	-12	i
CCCCc1ccc(NC(=S)NCCCN2CCOCC2)cc1	5	3	-9	3	4	.	-9	i
Cc1ccc(S(=O)(=O)Cc2ccc(C(=O)NCCCN3CCN(C)CC3)o2)cc1	0	-4	7	-12	-12	-7	-7	i
